UUG fidelity – modulators of yeast start codon fidelity, primary screen, whole organism, S. cerevisiae, single point, plate reader; S. cerevisiae UUG-firefly luciferase reporter, luminescence/redox ratio; activity score, % at 18.7 µM; 0.13% of 350,000 active; AID 602363, 2012;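 active = replicate mean at a twofold rise or more, about +100% in these data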;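 also: firefly luciferase made from a UUG start codon reports start codon fidelity; reporter light over untreated wells divided by growth signal over untreated wells; some hits fall short of that in this replicate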
* = called active by the depositor. This is a subset (hit frequency here may not be typical).

SMILES	UUG fidelity
CC(=O)NC[C@H]1[C@H](c2ccc(-c3cccc(F)c3)cc2)[C@H](CO)N1C(C)=O	-8
O=C(Nc1ccccc1F)N1C[C@@H]2[C@H](c3ccccc31)[C@@H](CO)N2C(=O)Cc1ccccc1	-7
COCC(=O)Nc1ccc2c(c1)[C@H]1C[C@@H](CC(=O)NCc3ccccc3OC)O[C@H](CO)[C@H]1O2	-11
CCCNC(=O)C[C@@H]1C[C@H]2c3cc(N(C)C)ccc3O[C@H]2[C@@H](CO)O1	-37
C[C@H]1CN([C@@H](C)CO)C(=O)c2c(c3ccccc3n2C)-c2ccccc2CO[C@@H]1CN(C)C(=O)c1ccccc1	11
O=C(C[C@H]1CC[C@@H]2[C@H](COC[C@@H](O)CN2Cc2ccc(Oc3ccccc3)cc2)O1)N1CCCCC1	10
CC(C)NC(=O)N(C)C[C@H]1OCc2ccccc2-c2c(n(C)c3ccccc23)C(=O)N([C@H](C)CO)C[C@H]1C	-5
CN1[C@@H]2c3ccc(-c4ccc(F)cc4)c(=O)n3C[C@H]1[C@H](CO)[C@H]2C(=O)NC1CCCCC1	-5
COc1ccc(CNC(=O)C[C@@H]2C[C@@H]3c4cc(NC(=O)NC5CCCC5)ccc4O[C@@H]3[C@H](CO)O2)cc1	5
O=C(C[C@@H]1CC[C@@H]2[C@H](COC[C@H](O)CN2C(=O)c2cnccn2)O1)NCc1ccc(Cl)cc1	0
CN(C)C(=O)c1ccc(-c2ccc3c(c2)[C@@H]2[C@@H](CCN2C(=O)c2ccccc2F)[C@@H](CO)N3)cc1	-8
CC(C)NC(=O)Nc1ccc2c(c1)CC(=O)N([C@H](C)CO)C[C@@H](C)[C@H](CN(C)S(=O)(=O)c1ccc(Cl)cc1)O2	-4
CC(C)NC(=O)Nc1cccc2c1O[C@H](CN(C)Cc1ccc(C(=O)O)cc1)[C@H](C)CN([C@H](C)CO)C2=O	132*
CO[C@@H]1CN(C)C(=O)c2cc(NC(=O)C3CC3)ccc2OC[C@@H](C)N(Cc2ccccc2)C[C@H]1C	-6
CNC[C@@H]1Oc2c(NS(=O)(=O)c3ccc(Cl)cc3)cccc2C(=O)N([C@@H](C)CO)C[C@H]1C	20
CCC(=O)N1C[C@@H]2[C@H](c3ccccc31)[C@@H](CO)N2C(=O)Nc1ccccc1F	77
COc1cccc(-c2ccc([C@@H]3[C@H](CO)N4CCCCN(C(=O)NC(C)C)C[C@@H]34)cc2)c1	-9
COc1cccc(S(=O)(=O)N2CCCCN3[C@H](CO)[C@H](c4ccc(C5=CCCCC5)cc4)[C@H]3C2)c1	-14
O=C(c1ccccc1F)N1CC[C@@H]2[C@H]1c1cc(Br)ccc1N[C@@H]2CO	-5
COc1ccc(CN(C)C[C@@H]2Oc3c(NS(=O)(=O)c4ccc(Cl)cc4)cccc3C(=O)N([C@@H](C)CO)C[C@@H]2C)cc1	-7
C[C@H](CO)N1C[C@H](C)[C@H](CN(C)Cc2ccc(C(=O)Nc3ccccc3N)cc2)Oc2c(NC(=O)Nc3ccc4c(c3)OCO4)cccc2C1=O	-3
C[C@H]1CN([C@@H](C)CO)C(=O)Cc2cc(NC(=O)CCN3CCOCC3)ccc2O[C@H]1CN(C)C(=O)Nc1ccccc1	-2
COc1ccc(CN(C)C[C@@H]2Oc3ccc(NS(=O)(=O)c4ccc(C)cc4)cc3CC(=O)N([C@H](C)CO)C[C@@H]2C)cc1	3
O=C(C[C@H]1CC[C@@H]2[C@H](COC[C@H](O)CN2S(=O)(=O)c2cccc(Cl)c2)O1)Nc1ccccc1	7
COc1ccc(C#Cc2ccc([C@H]3[C@H]4CN(C(=O)Nc5cccc(F)c5)CCCCN4[C@H]3CO)cc2)cc1	-5
C[C@@H]1CN([C@H](C)CO)C(=O)Cc2cc(NC(=O)Nc3ccccc3)ccc2O[C@@H]1CN(C)S(C)(=O)=O	-3
COCCNC(=O)C[C@H]1C[C@@H]2c3cc(NC(=O)Nc4ccccc4)ccc3O[C@@H]2[C@H](CO)O1	-7
C[C@@H]1CN([C@@H](C)CO)C(=O)Cc2cc(NC(=O)C3CC3)ccc2O[C@H]1CN(C)C(=O)Nc1ccc(F)cc1	-8
C[C@@H]1CN([C@H](C)CO)C(=O)c2ccccc2-c2ccccc2CO[C@@H]1CN(C)C(=O)Nc1cccc(F)c1	13
COc1ccc(NC(=O)N(C)C[C@@H]2Oc3c(NC(=O)NC(C)C)cccc3C(=O)N([C@H](C)CO)C[C@H]2C)cc1	14
CC(C)C#Cc1ccc([C@H]2[C@H](CO)N3CCCCN(CC4CC4)C[C@@H]23)cc1	8
CCCC(=O)Nc1ccc2c(c1)C(=O)N(C)[C@H]1CC[C@@H](CC(=O)NCc3ccccc3Cl)O[C@H]1CO2	20
CCN(C[C@@H]1N[C@H](CO)[C@@H]1c1ccc(C2=CCCC2)cc1)C(=O)c1ccccc1	-5
O=C(C1CCC1)N1CCCCN2[C@H](CO)[C@H](c3ccc(C#CC4CCCC4)cc3)[C@H]2C1	18
OC[C@@H]1[C@@H](c2ccc(C#Cc3ccccc3)cc2)[C@@H]2CN(CC3CCOCC3)CCCCN12	2
CC(C)(O)C#Cc1ccc([C@@H]2[C@@H](CO)N3CCCCN(C(=O)c4ccncc4)C[C@H]23)cc1	6

Copied from above for reference:
SMILES	UUG fidelity
COc1ccc(C#Cc2ccc([C@H]3[C@H]4CN(C(=O)Nc5cccc(F)c5)CCCCN4[C@H]3CO)cc2)cc1	-5
C[C@@H]1CN([C@H](C)CO)C(=O)Cc2cc(NC(=O)Nc3ccccc3)ccc2O[C@@H]1CN(C)S(C)(=O)=O	-3
COCCNC(=O)C[C@H]1C[C@@H]2c3cc(NC(=O)Nc4ccccc4)ccc3O[C@@H]2[C@H](CO)O1	-7
C[C@@H]1CN([C@@H](C)CO)C(=O)Cc2cc(NC(=O)C3CC3)ccc2O[C@H]1CN(C)C(=O)Nc1ccc(F)cc1	-8
C[C@@H]1CN([C@H](C)CO)C(=O)c2ccccc2-c2ccccc2CO[C@@H]1CN(C)C(=O)Nc1cccc(F)c1	13

Entries above printed as active in UUG fidelity:
SMILES	UUG fidelity
CC(C)NC(=O)Nc1cccc2c1O[C@H](CN(C)Cc1ccc(C(=O)O)cc1)[C@H](C)CN([C@H](C)CO)C2=O	132*

Continuation.
SMILES	UUG fidelity
C[C@H]1CN([C@@H](C)CO)C(=O)c2ccccc2-c2ccccc2CO[C@H]1CN(C)C(=O)Nc1cccc(F)c1	22
CN1CCCCN2[C@H](CO)[C@H](c3ccc(C#CC4(O)CCCC4)cc3)[C@@H]2C1	9
COCC(=O)NC[C@@H]1[C@H](c2ccc(-c3ccccc3)cc2)[C@H](CO)N1C(C)=O	-6
CO[C@H]1CN(C)C(=O)c2ccc(NC(=O)C3CCOCC3)cc2OC[C@@H](C)N(C(C)=O)C[C@@H]1C	9
CC(=O)N1CCCCN2[C@@H](CO)[C@@H](c3ccc(-c4ccc(F)cc4)cc3)[C@@H]2C1	2
C/C=C/c1ccc([C@H]2[C@@H](CN(C)C(C)=O)N(C(=O)NCCC)[C@H]2CO)cc1	0
C[C@H]1CN([C@@H](C)CO)C(=O)c2cc(NC(=O)Cn3cnnn3)ccc2O[C@H]1CN(C)C(=O)Nc1ccc(C(F)(F)F)cc1	10
COc1cccc(NC(=O)C[C@@H]2CC[C@H]3[C@@H](COc4ccc(NC(=O)c5ccccc5F)cc4C(=O)N3C)O2)c1	16
CCC(=O)N1C[C@@H]2[C@H](c3ccccc31)[C@H](CO)N2C(=O)Nc1ccccc1F	-4
O=S(=O)(c1ccccc1F)N1CC[C@@H]2[C@H]1c1cc(-c3ccc(F)cc3)ccc1N[C@@H]2CO	-19
OC[C@H]1[C@H](c2ccc(Br)cc2)[C@H]2CN(Cc3cncnc3)CCCCN21	-9
O=C(C1CCC1)N1CCCCN2[C@H](C1)[C@@H](c1ccc(C#CC3(O)CCCC3)cc1)[C@@H]2CO	6

Sorted by molecular weight (high to low): part of the list above.
SMILES	UUG fidelity
C[C@H]1CN([C@@H](C)CO)C(=O)c2ccccc2-c2ccccc2CO[C@H]1CN(C)C(=O)Nc1cccc(F)c1	22
O=S(=O)(c1ccccc1F)N1CC[C@@H]2[C@H]1c1cc(-c3ccc(F)cc3)ccc1N[C@@H]2CO	-19
C/C=C/c1ccc([C@H]2[C@@H](CN(C)C(C)=O)N(C(=O)NCCC)[C@H]2CO)cc1	0

Following part.
SMILES	UUG fidelity
O=C(c1cccc(F)c1)N1C[C@H]2[C@@H](c3ccccc31)[C@@H](CO)N2C(=O)C1CCOCC1	6
CC(C)NC(=O)N(C)C[C@H]1Oc2ccc(NC(=O)c3ccncc3)cc2CC(=O)N([C@H](C)CO)C[C@H]1C	0
C[C@H]1CN([C@@H](C)CO)C(=O)c2cccc(NC(=O)NC3CCCCC3)c2O[C@@H]1CN(C)S(C)(=O)=O	-2
CCC(=O)N1C[C@H](C)[C@H](OC)CN(C)C(=O)c2cc(NC(=O)Nc3ccc(Cl)cc3)ccc2OC[C@@H]1C	-1
C[C@H]1CN([C@@H](C)CO)C(=O)Cc2cc(NS(=O)(=O)c3ccc(Cl)cc3)ccc2O[C@H]1CN(C)C(=O)Nc1ccccc1	10
CCCNC(=O)C[C@H]1CC[C@H]2[C@H](COc3ccc(NC(=O)NC(C)C)cc3C(=O)N2C)O1	2
O=C(C[C@@H]1C[C@@H]2c3cc(NC(=O)C4CCOCC4)ccc3O[C@@H]2[C@@H](CO)O1)NCCc1ccccc1	8
C[C@@H]1CN([C@H](C)CO)C(=O)c2cc(NS(=O)(=O)c3ccc(Cl)cc3)ccc2O[C@H]1CN(C)C(=O)Nc1ccc2c(c1)OCO2	4
COc1ccc(S(=O)(=O)Nc2cccc3c2O[C@H](CN(C)C(=O)NC2CCCCC2)[C@@H](C)CN([C@@H](C)CO)C3=O)cc1	15
CCC(=O)N1CCCCN2[C@H](CO)[C@H](c3ccc(C#Cc4ccccc4F)cc3)[C@@H]2C1	-1
CCCNC(=O)[C@@H]1[C@@H](CO)[C@@H]2Cn3c(cccc3=O)[C@H]1N2C(=O)C1CC1	-13
CN1c2ccc(-c3cccc(F)c3)cc2[C@H]2[C@H](CCN2C(=O)C2CCCC2)[C@H]1CO	-4
C[C@@H]1CN([C@H](C)CO)C(=O)c2cc(NS(=O)(=O)c3cn(C)cn3)ccc2O[C@@H]1CN(C)Cc1ccc(C(=O)O)cc1	-18
CO[C@@H]1CN(C)C(=O)c2cc(NC(=O)c3ccccc3F)ccc2OC[C@H](C)N(CC2CC2)C[C@H]1C	5
OC[C@@H]1[C@@H](c2ccc(C#Cc3ccccc3)cc2)[C@H]2CN(CC3CCOCC3)CCCCN12	0
C/C=C/c1ccc([C@@H]2[C@H]3CN(C(=O)Nc4ccc(OC)cc4)CCCCN3[C@H]2CO)cc1	40
CCCNC(=O)N1C[C@H]2[C@@H](c3ccccc31)[C@@H](CO)N2C(=O)CN1CCOCC1	-12
CN1CCN(C(=O)C[C@@H]2CC[C@H]3[C@@H](COC[C@H](O)CN3CC3CCCCC3)O2)CC1	-3
COc1ccccc1NC(=O)N1CCCCN2[C@H](CO)[C@H](c3ccc(-c4ccc(C)cc4)cc3)[C@@H]2C1	14
COc1ccc(C#Cc2ccc([C@@H]3[C@@H](CO)N4CCCCN(C(=O)Nc5ccccc5F)C[C@@H]34)cc2)cc1	7
O=C(c1cccnc1)N1CCCCN2[C@H](CO)[C@@H](c3ccc(C#Cc4cccnc4)cc3)[C@H]2C1	-18
CO[C@@H]1CN(C)C(=O)c2cc(NS(=O)(=O)c3ccc(C)cc3)ccc2OC[C@@H](C)N(C)C[C@H]1C	12
CCCN1C[C@H](C)[C@@H](OC)CN(C)C(=O)c2ccc(NC(=O)c3cccc(F)c3)cc2OC[C@H]1C	5
COc1cccc(-c2ccc3c(c2)[C@H]2[C@H](CCN2S(=O)(=O)c2ccc(F)cc2)[C@@H](CO)N3C)c1	15
COc1ccccc1CNC(=O)C[C@@H]1CC[C@@H]2[C@H](COC[C@H](O)CN2C(=O)Nc2ccc(Cl)cc2)O1	16
O=C(c1ccccc1)N1C[C@H]2[C@@H](c3ccccc31)[C@H](CO)N2C(=O)CN1CCOCC1	-12
C[C@H](CO)N1C[C@H](C)[C@H](CN(C)C(=O)Nc2ccc3c(c2)OCO3)Oc2c(NC(=O)c3ccc(-c4nccs4)cc3)cccc2C1=O	-3
CO[C@H]1CN(C)C(=O)c2cc(NC(=O)c3ccccc3F)ccc2OC[C@@H](C)N(C(=O)c2ccccc2F)C[C@H]1C	10
OC[C@@H]1[C@H](c2ccc(-c3ccccc3)cc2)[C@H]2CN(CCC(F)(F)F)CCCCN12	3
Cc1cc(C(=O)Nc2cccc3c2O[C@@H](CN(C)C(=O)Nc2ccccc2)[C@H](C)CN([C@H](C)CO)C3=O)n(C)n1	-10
O=C(CC1CC1)Nc1ccc2c(c1)[C@H]1C[C@H](CC(=O)N3CCc4ccccc4C3)O[C@H](CO)[C@H]1O2	6
C[C@H](CO)N1C[C@H](C)[C@H](CN(C)C(=O)Nc2ccc(F)cc2)Oc2ccc(NC(=O)CCN3CCOCC3)cc2C1=O	-4
C[C@H](O)C#Cc1ccc([C@@H]2[C@H]3CN(C(=O)c4ccc5c(c4)OCO5)CCCCN3[C@H]2CO)cc1	8
C[C@@H]1CN([C@H](C)CO)C(=O)c2cc(NC(=O)Cc3cn(C)c4ccccc34)ccc2O[C@H]1CN(C)C	-1
O=C(C1CCCC1)N1CCCCN2[C@H](CO)[C@@H](c3ccc(-c4cccc(F)c4)cc3)[C@@H]2C1	9
O=C(C[C@H]1CC[C@@H]2[C@H](COC[C@H](O)CN2S(=O)(=O)c2cccc(F)c2)O1)NCCCN1CCOCC1	-7
CC(C)NC(=O)N(C)C[C@H]1Oc2ccc(NC(=O)Cc3ccccc3)cc2CC(=O)N([C@H](C)CO)C[C@@H]1C	15
COC(=O)C[C@@H]1CC[C@H]2[C@@H](COc3ccc(NC(=O)Nc4c(C)noc4C)cc3C(=O)N2C)O1	-7
C[C@H]1CN([C@@H](C)CO)C(=O)c2ccccc2-c2ccccc2CO[C@@H]1CN(C)C(=O)Oc1ccccc1	11

Compound activity deposited in PubChem by Broad Institute.
